Rce1 inh = yeast Rce1p protease inhibitors, primary screen, biochemical, fluorescence, cell-free homogeneous; AID 2563, 2010; yeast membranes, quenched prenylated peptide cleavage fluorescence; actives 0.27% (n = 290,000); CAAX prenyl protease 2 (Saccharomyces cerevisiae (strain ATCC 204508 / S288c)), Q03530; calls only;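 active = fall in fluorescence gain of 50% or more versus controls, with final raw signal at or below 3038400; inconclusive = same 50% fall but final raw signal above 3038400; inactive = fall in fluorescence gain under 50%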;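 note: plate controls were neutral control wells for no effect and wells lacking membranes for full effect; tested at 10 µM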
Target sequence (Q03530 whole entry, looked up): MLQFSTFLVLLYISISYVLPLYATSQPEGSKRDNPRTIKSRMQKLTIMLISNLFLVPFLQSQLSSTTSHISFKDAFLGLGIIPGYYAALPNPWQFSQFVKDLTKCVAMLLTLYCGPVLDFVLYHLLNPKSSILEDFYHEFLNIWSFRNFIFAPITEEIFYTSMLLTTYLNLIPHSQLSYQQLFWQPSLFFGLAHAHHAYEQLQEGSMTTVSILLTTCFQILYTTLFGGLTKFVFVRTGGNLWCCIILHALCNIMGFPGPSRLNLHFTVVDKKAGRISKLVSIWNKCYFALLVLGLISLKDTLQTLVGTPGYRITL
UUG fidelity = modulators of yeast start codon fidelity, primary screen, whole organism, S. cerevisiae, single point, plate reader; S. cerevisiae UUG-firefly luciferase reporter, luminescence/redox ratio; activity score, % at 18.7 µM; actives 0.13% (n = 350,000);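 active = replicate mean at a twofold rise or more, about +100% in these data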;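 note: firefly luciferase made from a UUG start codon reports start codon fidelity; reporter light over untreated wells divided by growth signal over untreated wells; some hits fall short of that in this replicate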
MT1-MMP act inh = blockers of MT1-MMP proenzyme processing, primary screen, HT1080 RFP-PRO-GFP cells, GFP/RFP fluorescence; Matrix metalloproteinase-14 (Homo sapiens), P50281; GFP/RFP ratio fluorescence, overnight; percent of plate control window, DMSO zero; GFP/RFP ratio change, % at 20 µM; actives 0.061% (n = 360,000); AID 651647, 2012;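 active = GFP/RFP ratio change of at least 30% with cell ATP level not reduced by more than half and red fluorescence within 50% of control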; note: strong numbers were not always called active
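Test system: HT1080 RFP-PRO-GFP cells; Benchmarks: DMSO and RFP-L50D-GFP cell wells; Timing: cells overnight before dosing, compound overnight, 37 °C, 5% CO2; Compound: one 20 µM compound dose with 1% DMSO; Read-out: GFP/RFP fluorescence ratio.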
eIF4H inh = human eIF4H binding inhibitors, primary screen, translation initiation inhibitor project, biochemical, uHTS, fluorescence polarization; Eukaryotic translation initiation factor 4H (Homo sapiens), Q15056; eIF4H fluorescence polarization binding assay; inhibition, % at 35 µM; actives 0.94% (n = 290,000); AID 2012, 2009;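 active = 50% or more with normal probe brightness, or confirmed in later tests; inconclusive = above 50% with abnormal brightness, or retests that disagree; inactive = below 50% or failed in later tests; about a fifth of its hits are not listed in these tables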;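 note: calls also rest on retests at 20 µM and on dose response follow-up; 0% = protein and probe with vehicle and 100% = probe without protein; strong numbers were not always called active; many hits fall short of the cut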
CSC inhib = cancer stem cell viability inhibitors, primary screen, luminescence | cancer stem cell-like cells viability | actives 1.1% (n = 300,000) | inhibition, % at 7.5 µM;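 active = mean at 75% or more and at least half the replicates too; inconclusive = mean and replicates disagree; tested in HMLE shEcad cells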;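 note: 0% = median of negative and 100% = median of positive control wells; the first replicate is given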
HIV Env fusion = inhibitors of HIV-1 Env-driven cell-cell fusion, primary screen, HeLa-JRFL effector, CEM21 target cells, luciferase | inhibition, % at 12.3 µM | actives 1.1% (n = 360,000);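 active = mean replicate inhibition score of at least 50 and every replicate individually at or above 50; inconclusive = only one of the two criteria met; inactive = mean below 50 and not all replicates reaching 50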;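 note: 0% = plate neutral controls and 100% = maraviroc near 300 nM; one replicate is shown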
PABP FP inh = PABP poly(A) RNA binding inhibitors, primary screen, biochemical, fluorescence polarization, uHTS; AID 2014, 2009; inhibition, % at 35 µM; Polyadenylate-binding protein 1 (Homo sapiens), P11940; actives 1% (n = 290,000);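 active = 50% or more with normal probe brightness, or confirmed in later tests; inconclusive = above 50% with abnormal brightness, or retests that disagree; inactive = below 50% or failed in later tests; about a fifth of its hits are not listed in these tables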;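 note: calls also rest on retests at 20 µM and on dose response follow-up; controls were probe without protein and protein plus probe with vehicle; some compounds called inactive have numbers as strong as hits; many hits fall short of the cut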
MT1-MMP act inh RFP = recorded beside MT1-MMP act inh, whose call it bears; RFP signal change, %; measured here: RFP expression control read;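 0 = vehicle wells; hits needed this value within 50% of zero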
* hit, by the source's call; i = inactive; ? = inconclusive; . = not tested or not shown.

Start of the data: the first 4 compounds (preview)
SMILES	Rce1 inh	UUG fidelity	MT1-MMP act inh	MT1-MMP act inh RFP	eIF4H inh	CSC inhib	HIV Env fusion	PABP FP inh
O=c1c2cc(F)ccc2[nH]c(=S)n1CCCN1CCOCC1	i	-3	9	4	-1	-11	5	-1
COc1ccccc1/C=C/C=C(\C#N)C(=O)NC(C)c1ccccc1 (configuration not stated)	i	-5	6	3	-3	47	-11	-4
COc1ccc(OC)c(NC(=O)CN(C)S(=O)(=O)c2ccc(Cl)cc2)c1	i	1	-2	0	4	-5	-9	-5
CC(C)(C)NC(=O)NC(=O)COC(=O)c1cc(=O)[nH]c2ccccc12	i	-2	-3	2	-6	-14	-7	-10

The list itself (from the top)
SMILES	Rce1 inh	UUG fidelity	MT1-MMP act inh	MT1-MMP act inh RFP	eIF4H inh	CSC inhib	HIV Env fusion	PABP FP inh
O=c1c2cc(F)ccc2[nH]c(=S)n1CCCN1CCOCC1	i	-3	9	4	-1	-11	5	-1
COc1ccccc1/C=C/C=C(\C#N)C(=O)NC(C)c1ccccc1 (configuration not stated)	i	-5	6	3	-3	47	-11	-4
COc1ccc(OC)c(NC(=O)CN(C)S(=O)(=O)c2ccc(Cl)cc2)c1	i	1	-2	0	4	-5	-9	-5
CC(C)(C)NC(=O)NC(=O)COC(=O)c1cc(=O)[nH]c2ccccc12	i	-2	-3	2	-6	-14	-7	-10
CCn1nc(C)c(CN2CCCC(CO)(Cc3cccc(Cl)c3)C2)c1C (configuration not stated)	i	.	-1	-4	-6	26	-35	-2
COCCNC(=O)CCCn1c(=O)c2ccccc2n(Cc2cccc([N+](=O)[O-])c2)c1=O	i	.	-2	2	4	-9	24	5
Cc1cc(C)n2nc(SCCOc3ccccc3)nc2n1	i	.	6	-2	1	6	12	14
CC(C)Cc1nc(Nc2ccccc2C#N)c2nnn(Cc3ccccc3)c2n1	i	-1	-21	-22	-11	16	31	-1
CC(C)Nc1nc(NNc2nc(Cl)nc(NC(C)(C)C)n2)nc(NC(C)C)n1	i	-9	-8	-8	-9	-7	8	-4
CN(C)c1ccc(/C=C/C(=O)c2ccc3c(c2)OCO3)cc1	.	-2	-121	2	.	31	-25	.
CCC1CN(C(=O)NCc2ccc(F)cc2)c2ccccc2O1 (configuration not stated)	i	-10	-4	-2	3	-4	8	10
O=S(=O)(Nc1nc2ccccc2s1)c1ccc(Cl)nc1	i	.	.	.	3	28	2	15
Cc1ccc(S(=O)(=O)N2CCCC2)cc1C(=O)NCCN1CCOCC1	i	-20	-8	2	-4	7	-10	2
O=C(c1cc2cc(F)ccc2[nH]1)N(Cc1cccnc1)CC1CCCN(C2CCCCC2)C1 (configuration not stated)	i	-20	-3	2	.	-2	19	.
Cc1c2cnn(-c3ccccc3)c(=O)c2c(C)n1CCCC(=O)N1CCN(C)CC1	i	3	0	4	-2	-9	0	-7
COc1cc(Cl)cc(NC(=O)CCN2CCN(C)CC2)c1	i	19	4	6	-4	-6	-21	22
CCCCn1c(SCC(=O)Nc2ccc(C)c(S(=O)(=O)N3CCOCC3)c2)nnc1C(CC)N(C)C (configuration not stated)	i	8	3	2	.	-8	-4	.
CCC(CC)=NNc1ccc([N+](=O)[O-])cc1[N+](=O)[O-]	i	.	-1	4	0	11	16	?
CN(Cc1ccccc1)S(=O)(=O)c1cc2c3c(c1)CCN3C(=O)CC2	i	-15	6	0	.	1	-6	.
Clc1ccccc1/C=C/c1nc(-c2cccnc2)no1	i	-5	-5	-3	-12	-10	-66	-12
c1ccc2c(c1)NC(CN1CCOCC1)CO2 (configuration not stated)	i	-5	7	3	-18	-9	.	-13
CCCOc1ccc(NC(=O)C2CC(=O)N/C(=N/N=C(C)/C=C/c3ccc(N(C)C)cc3)S2)cc1 (configuration not stated)	i	-12	-10	3	31	24	.	-2
CC(=O)N1CCN(C(=O)COC(=O)COc2ccc(C#N)cc2)CC1	i	.	2	6	.	-13	3	.
CN1CCN(S(=O)(=O)c2ccc3c4c(cccc24)C(=O)N3)CC1	i	-2	-2	3	-9	0	4	-6
CC1=NN(C(N)=S)C(=O)C1N=Nc1ccc([N+](=O)[O-])cc1 (configuration not stated)	i	-19	3	-4	1	-10	.	-4
COc1ccc(CNC(=O)[C@@H](NC(=O)C2CCN(C(=O)[C@@H]3CCCN3C(=O)OC(C)(C)C)CC2)C(C)C)cc1	i	-12	10	5	4	4	.	10
C=CCC(C(=O)OC)(C(=O)OC)c1ccc(C(F)(F)F)cc1[N+](=O)[O-]	i	.	-5	0	0	0	2	4
Cc1ccc(SCCCCN2CCOCC2)cc1	i	-17	-7	2	3	33	11	17
COc1cc(CNc2ncnc3c2ncn3[C@H]2CN(Cc3ccc4c(c3)OCO4)C[C@@H](CO)O2)cc(OC)c1OC	.	7	-1	-1	.	.	14	.
Cc1cc(C(=O)Nc2nccs2)c2cc(F)ccc2n1	i	.	9	2	2	-3	7	4
CCN(CC)C(=S)NC(=O)c1cc(OC)c(OC)c(OC)c1	i	.	-4	0	-10	3	25	3
COc1cc(NS(=O)(=O)c2ccc(NC(=O)c3ccc(S(=O)(=O)N4CCCCC4)cc3)cc2)ncn1	i	.	-2	2	14	2	-2	-11
CCOC(=O)[C@@H]1[C@H]2COc3ccccc3[C@@H]2N2C(=O)N(c3ccc(F)cc3)C(=O)[C@]12C	i	-6	0	2	.	-6	8	.
COc1ccccc1NC(=O)NNC(=O)c1ccc2ccccc2c1O	i	1	-2	3	22	15	-7	6
CCCn1cnc2cc(NCc3ccccc3O)ccc21	i	-19	1	4	2	-6	-10	-2
Cn1cc(CNC(=O)c2cc(-c3ccc(Br)cc3)nc3ccccc23)cn1	i	-7	5	0	-5	8	-13	-4

A second format for some results above.
| SMILES | Rce1 inh | UUG fidelity | MT1-MMP act inh | MT1-MMP act inh RFP | eIF4H inh | CSC inhib | HIV Env fusion | PABP FP inh |
| --- | --- | --- | --- | --- | --- | --- | --- | --- |
| Cn1cc(CNC(=O)c2cc(-c3ccc(Br)cc3)nc3ccccc23)cn1 | i | -7 | 5 | 0 | -5 | 8 | -13 | -4 |
| Cc1cc(C(=O)Nc2nccs2)c2cc(F)ccc2n1 | i | . | 9 | 2 | 2 | -3 | 7 | 4 |
| COc1cc(NS(=O)(=O)c2ccc(NC(=O)c3ccc(S(=O)(=O)N4CCCCC4)cc3)cc2)ncn1 | i | . | -2 | 2 | 14 | 2 | -2 | -11 |
| COc1cc(CNc2ncnc3c2ncn3[C@H]2CN(Cc3ccc4c(c3)OCO4)C[C@@H](CO)O2)cc(OC)c1OC | . | 7 | -1 | -1 | . | . | 14 | . |
| COc1ccccc1NC(=O)NNC(=O)c1ccc2ccccc2c1O | i | 1 | -2 | 3 | 22 | 15 | -7 | 6 |
| CC1=NN(C(N)=S)C(=O)C1N=Nc1ccc([N+](=O)[O-])cc1 (configuration not stated) | i | -19 | 3 | -4 | 1 | -10 | . | -4 |
| Cc1ccc(SCCCCN2CCOCC2)cc1 | i | -17 | -7 | 2 | 3 | 33 | 11 | 17 |

Gathered by group, the entries above with two or more sulfur atoms (3)
SMILES	Rce1 inh	UUG fidelity	MT1-MMP act inh	MT1-MMP act inh RFP	eIF4H inh	CSC inhib	HIV Env fusion	PABP FP inh
O=S(=O)(Nc1nc2ccccc2s1)c1ccc(Cl)nc1	i	.	.	.	3	28	2	15
CCCCn1c(SCC(=O)Nc2ccc(C)c(S(=O)(=O)N3CCOCC3)c2)nnc1C(CC)N(C)C (configuration not stated)	i	8	3	2	.	-8	-4	.
COc1cc(NS(=O)(=O)c2ccc(NC(=O)c3ccc(S(=O)(=O)N4CCCCC4)cc3)cc2)ncn1	i	.	-2	2	14	2	-2	-11

Continuation.
SMILES	Rce1 inh	UUG fidelity	MT1-MMP act inh	MT1-MMP act inh RFP	eIF4H inh	CSC inhib	HIV Env fusion	PABP FP inh
CCOc1ccc(/C=C/C(=O)NC2CCCCC2)cc1	i	-15	-3	-2	-7	-5	-36	1
C/C(=C\c1ccc(Cl)cc1)C(=O)c1c(C)cc(C)[nH]c1=O	i	-4	1	2	-4	-8	3	-2
C=CCn1c(COc2ccccc2)nnc1SC(C)C(=O)N/N=C/c1cc(Cl)ccc1O (configuration not stated)	i	-16	0	-9	4	58	.	0
O=C(c1ccc(CS(=O)c2cccc(Cl)c2)o1)N1CCCCCC1 (configuration not stated)	i	18	4	-14	3	-9	13	22
CN(Cc1ccccc1Br)C(=O)CSc1nnnn1C1CC1	.	-12	-2	2	.	-16	.	.
C/C(=N\OC(=O)c1ccccc1)c1c(C)nc2cc(C)ccn12	i	-22	-1	6	19	-8	7	-14
COC(=O)c1cc(NC(=O)CN(C)Cc2ccccc2)cc(C(=O)OC)c1	i	-11	-3	-4	-9	10	-3	12
COc1ccc(OC)c(S(=O)(=O)N2CCC(C(=O)Nc3cccc(C)c3)CC2)c1	i	.	5	-1	3	6	.	-4
O=C(Nc1nnc(C(F)(F)F)s1)c1ccc(N2C(=O)C3C4C=CC(C4)C3C2=O)cc1 (configuration not stated)	i	-2	-2	-5	5	5	.	-14
COc1ccc(OC)c(C(=O)c2c(C)oc3cc([N+](=O)[O-])c(O)c([N+](=O)[O-])c23)c1	i	-17	1	1	-6	3	-6	2
CCN(CC(=O)NC1CCS(=O)(=O)C1)S(=O)(=O)c1ccc(Br)cc1 (configuration not stated)	.	-31	1	4	.	-8	1	.
CCCN(Cc1cc2cccc(C)c2[nH]c1=O)S(C)(=O)=O	i	-13	5	6	-7	-5	.	-12
CCN(CC)Cc1c(C(=O)N/N=C/c2cccc3ccccc23)nnn1-c1nonc1N	i	-9	1	-2	-11	4	0	-2
Nc1cnccc1C(=O)O	i	-19	-86	12	?	7	2	-10
O=C(Nc1cccc2ccccc12)NC1CCCCC1O (configuration not stated)	i	-17	2	4	.	12	-8	.
COc1cc(OC)cc(C(C)=O)c1	i	-7	8	4	-2	7	-38	-10
Cc1ccc2c(CC(=O)N3CCOCC3)coc2c1	i	.	-1	5	-15	.	-11	-5
COc1ccc(-n2c(=O)c3ccccc3n(CC(=O)c3ccccc3)c2=O)cc1OC	i	.	0	1	-1	-27	7	-3
COC(=O)[C@@]12CCCN1[C@H](c1ccc(-c3ccc(C(C)=O)cc3)c(OC)c1)[C@H]1C(=O)N(C)C(=O)[C@H]12	.	-1	-1	-1	.	-5	-4	.
Cn1ccnc1SCC(=O)Nc1cccc(S(=O)(=O)N2CCCCC2)c1	.	.	-3	-2	1	-11	-2	8
Cc1csc(NC(=O)c2cc3c(s2)-c2ccccc2OC3)n1	i	-16	-3	-15	22	16	-14	21
CCCc1nnc(NC(=O)CCC(=O)N2CCC(C)CC2)s1	i	-2	3	4	0	-17	-2	3
CCOC(=O)CSc1nnc([C@H](Cc2ccccc2)NC(=O)OC(C)(C)C)o1	.	-3	2	3	1	-14	2	2
CC1=C(C(N)=O)C(c2ccc3c(c2)OCO3)n2nc(-c3cccc(C)c3)nc2N1 (configuration not stated)	i	4	8	3	.	4	-18	.
Cc1nc2ccc(S(=O)(=O)CCC(=O)NCCc3ccccc3)cc2s1	.	12	3	3	.	.	-13	.
CC1CCC(C(C)C)C(OC(=O)Cn2c(-c3ccc(F)cc3)[n+](C)c3ccccc32)C1 (configuration not stated)	.	8	-17	-34	0	10	65*	7

Screening results (PubChem BioAssay)

An excerpt; count on the stated rates, not on these rows.
